# Source: PubChem BioAssay
# TRPML1 blocker: qHTS for Inhibitors of the Human Mucolipin Transient Receptor Potential 1 (TRPML1); Mucolipin-1 (Homo sapiens), Q9GZU1; TRPML1-inducible cells, Ca2+ dye fluorescence, FDSS; hits give low values; inhibition of EC80 agonist-evoked calcium signal; activity change, negative = inhibition, % (concentration not given with the values); actives 0.02% (n = 390,000); AID 624415, 2012; in the data active means activity change below about -50%; inconclusive means about -30% to -50%; inactive means above about -30%;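 further: stimulus is agonist 54-4 at its EC80 concentration; on the % scale 0 is the no-effect control and ±100 the full control effect; compound concentration not given in the record; the text of the record puts the active cut at -80%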
#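 Tet-induced TRPML1-DL cells loaded with Ca8 no-wash calcium dye were read kinetically on FDSS. Compound addition was followed by EC80 agonist 54-4 (4 uM final); inhibition was read over 110 s.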
# Six1-Eya2 blk: qHTS Assay for Inhibitors of the Six1/Eya2 Interaction. actives 0.56% (n = 360,000). AlphaScreen GST-Six1/His-Eya2 binding, biochemical; hits give low values; control for the full effect not named in the record. activity change, % (no concentration beside the values). Homeobox protein SIX1 (Homo sapiens) + Protein phosphatase EYA2 (Homo sapiens), …. AID 651725, 2012; in the data active = activity change below about -65%; inconclusive = about -30% to -65%; inactive = above about -30%; further: on the % scale 0 is the no-effect control and ±100 the full control effect; compound concentration not given in the record
# Target sequence (O00167 whole entry, looked up): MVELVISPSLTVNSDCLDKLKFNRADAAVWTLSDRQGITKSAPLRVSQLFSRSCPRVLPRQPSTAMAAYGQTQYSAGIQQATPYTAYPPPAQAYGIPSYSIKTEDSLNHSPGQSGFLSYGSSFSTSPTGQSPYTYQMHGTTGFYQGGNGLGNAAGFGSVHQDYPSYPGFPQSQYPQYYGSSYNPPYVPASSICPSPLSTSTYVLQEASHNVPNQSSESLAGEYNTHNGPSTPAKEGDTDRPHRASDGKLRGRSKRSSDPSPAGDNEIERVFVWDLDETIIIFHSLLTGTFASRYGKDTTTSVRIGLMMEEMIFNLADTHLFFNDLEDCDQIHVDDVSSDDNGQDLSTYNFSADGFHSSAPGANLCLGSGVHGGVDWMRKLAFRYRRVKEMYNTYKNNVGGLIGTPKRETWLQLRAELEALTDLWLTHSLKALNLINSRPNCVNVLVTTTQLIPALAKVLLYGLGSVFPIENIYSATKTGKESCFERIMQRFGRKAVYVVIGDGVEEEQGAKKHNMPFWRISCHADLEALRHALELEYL
# Target sequence (Q15475 whole entry, looked up): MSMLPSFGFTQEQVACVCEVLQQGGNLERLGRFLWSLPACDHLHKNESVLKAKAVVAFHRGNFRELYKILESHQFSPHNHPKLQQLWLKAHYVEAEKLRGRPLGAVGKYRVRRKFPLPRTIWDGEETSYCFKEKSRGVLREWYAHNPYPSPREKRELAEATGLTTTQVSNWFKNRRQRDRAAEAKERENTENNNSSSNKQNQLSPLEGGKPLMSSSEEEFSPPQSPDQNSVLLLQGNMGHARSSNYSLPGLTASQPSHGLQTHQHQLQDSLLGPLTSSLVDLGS
#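 Compounds are tested against tagged Six1 and Eya2 proteins bridged by glutathione donor and nickel acceptor beads; after a one-hour incubation at 37 °C without light, AlphaScreen emission is recorded.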
# TRPV1 PAM: HTS Assay for Compounds that Act as Potentiators of the Vanilloid Receptor 1; Transient receptor potential cation channel subfamily V member 1 (Homo sapiens), Q8NER1; TRPV1-expressing cells, Fluo-8 calcium influx, capsaicin EC20 potentiation; host cell line not named in the record; control for the full effect not named in the record; potentiation, % at 8.33 µM; actives 0.02% (n = 320,000); AID 540277, 2011; active means potentiation above 80%; inconclusive means 30% to 80%; inactive means below 30%; further: 0% is about no effect
#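 TRPV1-expressing cells were cultured overnight at 35.5C and loaded with Fluo-8 calcium dye for 40 to 90 min at room temperature. After a 10 s baseline, compound was added and calcium influx was read kinetically for 3 min (ex 480/em 520 nm).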
# CtBP-E1A blk: qHTS Assay for Inhibitors of the CtBP/E1A Interaction | CtBP / adenovirus E1A interaction (AlphaScreen) | activity change, % (no concentration beside the values) | AlphaScreen GST-E1A/His-CtBP binding, 1536-well; hits give low values; control for the full effect not named in the record | actives 0.49% (n = 340,000); in the data active means activity change below about -65%; inconclusive means about -30% to -65%; inactive means above about -30%; further: on the % scale 0 is the no-effect control and ±100 the full control effect; compound concentration not given in the record
#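 Protein mix (5X: 125 nM each GST-E1A, His-CtBP) was incubated with pinned compound 2 h at 37 deg C in dark, in 50 mM Tris pH 8.0 buffer with 300 mM NaCl. Glutathione donor and nickel acceptor beads followed; AlphaScreen signal read after 1 h.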
# TRPML1 agonist: qHTS for Agonists of the Human Mucolipin Transient Receptor Potential 1 (TRPML1); Mucolipin-1 (Homo sapiens), Q9GZU1; TRPML1-expressing cells, Ca2+ dye fluorescence, FDSS; host cell line not named in the record; reference of the full effect not given here; activation, % (test concentration not listed); actives 0.12% (n = 410,000); AID 624414, 2012; in the data active = activation above about 50%; inconclusive = about 30% to 50%; inactive = below about 30%; further: 0% is about no effect; the text of the record puts the active cut at 80%
#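 Kinetic FDSS Ca2+ read in Tet-induced TRPML1-DL cells (ABD Ca8 dye plus quencher, 45-90 min RT loading): baseline, then compound, then 110 s agonist window; EC80 agonist 54-4 at 4uM final added afterwards for a 110 s antagonist window.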
# D2 PAM: Beta-Arrestin HTS for Positive Allosteric Modulators of the Human D2 Dopamine Receptor: Potentiators. D(2) dopamine receptor (Homo sapiens), P14416. DiscoveRx D2 beta-arrestin cells, luminescence, 90 min; 100% = 57 uM dopamine signal. potentiation, % (concentration not given with the values). actives 0.23% (n = 360,000). AID 624464, 2012; active = potentiation of 50% or more; inconclusive = 30% to 50%; inactive = 30% or less;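 further: compound concentration not given in the record; tested on top of an EC20 dose of dopamine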
#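 D2 cells co-treated with compound plus 50 nM dopamine (EC20) for 90 min at 37 deg C to detect potentiation. Beta-arrestin recruitment was read as enzyme-fragment luminescence after 1 h at ambient temperature. Full response was set by 57 uM dopamine.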
# The depositor's hits bear a star; u = inconclusive; x = no result given.
# Screens in order: TRPML1 blocker	Six1-Eya2 blk	TRPV1 PAM	CtBP-E1A blk	TRPML1 agonist	D2 PAM
Nc1cccc(Oc2ccc3c(c2)C(=O)NC3=O)c1
 : 5.5	-5.6	-13.3	0.1	-0.4	-0.6
O=C(COC(=O)c1ccc2ccccc2n1)c1ccc(F)cc1
 : 6.8	-4.2	10.6	3.5	-0.1	-5.2
Cc1cc(Br)c(NC(=O)COC(=O)C2CC2C)c(Br)c1 (stereo not drawn)
 : 14.4	2.7	-3.7	0.3	0.5	-5.2
NNC(=O)CNc1cccc(Cl)c1
 : 13.6	6.4	-13.8	-4.2	0.9	3.8
O=C(CSc1nnc(-c2ccc(Cl)cc2)n1-c1ccc(Cl)cc1)N/N=C/c1ccco1
 : -19.2	-18.2	-6.0	2.2	1.6	17.4
Cn1nc(C(C)(C)C)cc1NC(=O)Nc1ccc(F)cc1F
 : 5.0	-7.1	2.9	3.7	0.0	-19.0
CCCc1cc(C(N)=O)c(NC(=O)c2ccco2)s1
 : -5.0	-6.1	-21.9	-6.0	1.9	-2.7
CCOC(=O)Cc1csc(NC(=O)NC2(C(F)(F)F)Oc3ccccc3O2)n1
 : -7.3	-1.9	12.7	6.2	0.3	12.6
C=CCN1C(=O)C(Cc2ccc(OCC)cc2)S/C1=N\N=C\c1cccs1 (stereo not drawn)
 : 4.0	-10.0	0.8	-2.4	1.3	-24.1
O=C(Nc1ccc2oc(-c3ccccc3F)nc2c1)c1ccccc1F
 : 1.3	-6.1	17.5	-4.1	0.0	2.3

# Fetched by compound from above:
# Screens in order: TRPML1 blocker	Six1-Eya2 blk	TRPV1 PAM	CtBP-E1A blk	TRPML1 agonist	D2 PAM
Nc1cccc(Oc2ccc3c(c2)C(=O)NC3=O)c1
 : 5.5	-5.6	-13.3	0.1	-0.4	-0.6
NNC(=O)CNc1cccc(Cl)c1
 : 13.6	6.4	-13.8	-4.2	0.9	3.8

# Remaining list, next part
# Screens in order: TRPML1 blocker	Six1-Eya2 blk	TRPV1 PAM	CtBP-E1A blk	TRPML1 agonist	D2 PAM
COc1cc(OC)cc(C(=O)NC(=S)N2CCN(c3ccc(C(F)(F)F)cc3[N+](=O)[O-])CC2)c1
 : 55.1	-2.1	3.1	-3.5	2.1	0.3
Cc1ccc(C(=O)Nc2ccc(C(=O)N3CCCCC3)cc2)cc1
 : 35.8	5.0	-17.2	x	1.0	-3.3
CCC(=O)Nc1ccc(C(=O)Cn2ncc(Cl)c(Cl)c2=O)cc1
 : 11.7	-1.0	u	x	0.3	0.4
COc1ccccc1N1CCN(C(c2ccccc2Cl)c2nnnn2C(C)(C)C)CC1 (stereo not drawn)
 : 7.4	u	-3.6	-13.9	1.9	-10.7
Cc1ccccc1S(=O)(=O)N(C)C[C@@H]1OCc2cn(nn2)CCCC(=O)N([C@H](C)CO)C[C@H]1C
 : 0.9	-7.8	x	-3.1	-0.1	2.0
CC(C)C(=O)Nc1cccc(COc2ccccc2CN(Cc2ccccc2)C(=O)OC(C)(C)C)c1
 : 5.2	3.9	x	-1.0	-0.5	0.5
COc1ccc(NC(=O)CSc2nncs2)cc1S(=O)(=O)N1CCCCC1
 : 19.3	-0.9	x	-1.1	0.1	-0.1
Cc1cc(NC(=O)CCC(=O)N(CCC(C)C)CC(=O)NCC2CCCO2)no1 (stereo not drawn)
 : -2.1	6.1	3.6	-6.3	-0.5	9.8
COc1ccc(NC(=O)C/C(C)=N/NC(=O)c2cccs2)c([N+](=O)[O-])c1
 : 3.8	-20.1	-8.1	-21.7	0.9	-1.4
COc1cccc(N2CCN(c3c(C#N)c(C(F)(F)F)nn3C)CC2)c1
 : 46.3	2.4	-7.8	-5.4	1.8	6.0
O=C1NC[C@H](Cc2ccccc2)N(C[C@@H]2CCCN2C[C@H](Cc2ccc(O)cc2)N2C[C@H](Cc3ccc(O)cc3)N(CCc3ccccc3)C(=O)C2=O)C1=O
 : x	-12.3	x	1.6	-0.3	x
O=Cc1nccc2ccccc12
 : -4.7	-6.6	x	8.2	-0.3	-7.9
Cc1ccc(Cn2nnc3c(=O)[nH]c(C4CCN(C(=O)Cc5cccs5)CC4)nc32)cc1
 : -4.6	-3.3	5.3	-7.2	-0.3	-18.5
CCCn1c(=S)[nH]c2cc(C(=O)N3CCN(c4ccccc4OC)CC3)ccc2c1=O
 : 25.0	-2.4	-34.1	0.0	2.0	-5.4
CCOc1ccc2[nH]cc(C(=O)NCc3ccc(F)cc3)c(=O)c2c1
 : 15.1	-4.6	-26.2	-13.7	2.6	3.7
Cc1ccccc1NS(=O)(=O)c1cccc2nsnc12
 : -18.2	0.6	23.6	7.8	-1.0	0.0
COc1ccc2oc(C(=O)NC3CCCCC3)c(C)c2c1
 : -1.4	1.4	12.3	9.4	0.1	5.0
COC(=O)[C@H](C)NC(=O)Nc1ccc(Oc2ccccc2)cc1
 : 7.4	-3.1	-3.1	-7.4	0.6	-7.4
COc1ccc(C2COC(=O)C2=N)c(NC(=O)c2ccccc2)c1 (stereo not drawn)
 : 6.2	0.5	-4.3	0.8	-0.5	-7.5
COc1cccc2c1OC1(C)CC2NC(=O)N1c1cccc(C(=O)N2CCN(c3ccccn3)CC2)c1 (stereo not drawn)
 : -8.0	-2.9	-3.4	1.0	-0.9	6.3

# An excerpt from above in order of SMILES length, low to high:
# Screens in order: TRPML1 blocker	Six1-Eya2 blk	TRPV1 PAM	CtBP-E1A blk	TRPML1 agonist	D2 PAM
O=Cc1nccc2ccccc12
 : -4.7	-6.6	x	8.2	-0.3	-7.9
COc1ccc2oc(C(=O)NC3CCCCC3)c(C)c2c1
 : -1.4	1.4	12.3	9.4	0.1	5.0
COc1ccc(C2COC(=O)C2=N)c(NC(=O)c2ccccc2)c1 (stereo not drawn)
 : 6.2	0.5	-4.3	0.8	-0.5	-7.5
CCCn1c(=S)[nH]c2cc(C(=O)N3CCN(c4ccccc4OC)CC3)ccc2c1=O
 : 25.0	-2.4	-34.1	0.0	2.0	-5.4
COc1cccc2c1OC1(C)CC2NC(=O)N1c1cccc(C(=O)N2CCN(c3ccccn3)CC2)c1 (stereo not drawn)
 : -8.0	-2.9	-3.4	1.0	-0.9	6.3
O=C1NC[C@H](Cc2ccccc2)N(C[C@@H]2CCCN2C[C@H](Cc2ccc(O)cc2)N2C[C@H](Cc3ccc(O)cc3)N(CCc3ccccc3)C(=O)C2=O)C1=O
 : x	-12.3	x	1.6	-0.3	x

# Other structures.
# Screens in order: TRPML1 blocker	Six1-Eya2 blk	TRPV1 PAM	CtBP-E1A blk	TRPML1 agonist	D2 PAM
COc1ccc(OC)c(Nc2nc(NCc3ccco3)c3ccccc3n2)c1
 : -9.1	-22.1	3.3	-20.8	0.9	-16.1
COc1ccc(CN2CCN(CC3CC3)CC2CCO)c(C)c1C (stereo not drawn)
 : -19.8	0.9	-7.4	13.3	0.4	-3.2
CCCCCCCC(=O)N/N=C(/C)c1c(O)cc(C)oc1=O
 : 7.3	-0.1	-21.8	7.2	-0.1	-11.1
CCOC(=O)C1=C(C)N(C)C(C)=C(C(=O)OCC)C1c1ccc(Cl)cc1
 : -2.1	7.0	-2.6	22.9	5.9	-2.5
COC(=O)CSc1nc2ncc(Cl)cc2[nH]1
 : 16.5	-6.9	-18.8	-1.5	-0.1	-10.6
Cc1nc(N)sc1C(=O)N/N=C/c1ccc([N+](=O)[O-])cc1
 : 2.0	16.6	10.8	13.3	0.8	0.8
O=C(Nc1ccc(F)cc1)c1oc2ccccc2c1NC(=O)C1CCCC1
 : 47.2	1.4	5.4	4.3	7.3	-10.7
COc1ccc(C)cc1S(=O)(=O)N(C)CC(=O)N1CCCCCC1
 : -7.7	0.5	-3.1	21.6	2.8	-3.3

# 3 entries from above, arranged by the value under D2 PAM, lowest first.
structure | D2 PAM
COc1ccc(C)cc1S(=O)(=O)N(C)CC(=O)N1CCCCCC1 | -3.3
COc1ccc(CN2CCN(CC3CC3)CC2CCO)c(C)c1C (stereo not drawn) | -3.2
Cc1cc(NC(=O)CCC(=O)N(CCC(C)C)CC(=O)NCC2CCCO2)no1 (stereo not drawn) | 9.8
